2A firefly: lowers the firefly signal of an FMDV 2A StopGo reporter | hit rate 0.23% among 120,000 | HEK cells with a luciferase reporter of 2A StopGo recoding | Potency, µM (series often up to 57.5 µM), for the others: at the highest dose signal change, negative = less light | AID 1745856; active = well fitted falling curve with a large enough effect; inconclusive = small, poorly fitted or top-dose-only effect; inactive = no such curve, though single readings can be large or run the other way; further: nearly all actives have a fitted effect of over 60% in size; overnight with compound
StopGo RLuc: lowers the Renilla signal of an FMDV 2A StopGo reporter; HEK cells with a luciferase reporter of 2A StopGo recoding; Potency, µM (highest dose often 57.5 µM), for the others: top-dose signal change, negative = less light; hit rate 0.32% among 120,000; active means well fitted falling curve with a large enough effect; inconclusive means small, poorly fitted or top-dose-only effect; inactive means no such curve, though single readings can be large or run the other way; further: nearly all actives have a fitted effect of over 55% in size; overnight with compound
* hit, by the source's call; & = joins results of further samples; [ ] = remark or other dose. On the % scale 0 is the no-effect control and ±100 the full control effect; potency means the concentration at half of the fitted maximal effect. No enrichment for hits, and some 0.55% of all compounds hit somewhere here.

`Cc1ccoc1C(=O)OCc1ccccc1C#N` gave 2A firefly 57%[activator] and StopGo RLuc 34%[activator].
For CC(C)c1ccc(-c2nonc2NC(=O)c2cc(=O)c3ccccc3o2)cc1 the results were 2A firefly -16% and StopGo RLuc -24%.
Cc1ccc(SCCNC(=O)c2ccc3c(c2)OCCCO3)cc1 was read as 2A firefly 182%[activator] and StopGo RLuc -7%.
Screening COc1ccc(-c2[nH]c(-c3ccc(F)cc3)nc2SCC(=O)Nc2nccs2)cc1 returned 2A firefly -7% and StopGo RLuc 0%.
CCC1CN(CC(=O)Nc2cc(OC)c(OC)c(OC)c2)c2ccccc2S1 (stereo not given) was read as 2A firefly -26% and StopGo RLuc -24%.
For Cc1nc2c(C(=O)NCc3ccccc3)cnn2c(C)c1Cc1ccc(F)cc1 the results were 2A firefly -14% and StopGo RLuc -5%.
`Cc1ccc(-c2nc(-c3nc(-c4cccs4)cs3)sc2C)cc1C` gave 2A firefly 0% and StopGo RLuc -2%.
CCCc1c(C)[nH]c2c(Br)cccc2c1=O was read as 2A firefly 0% and StopGo RLuc 0%.
O=C(Cn1c(=O)n(CCc2ccccc2)c(=O)c2cccnc21)Nc1ccc(F)cc1 was read as 2A firefly -3% and StopGo RLuc -12%.
`c1ccc(-c2csc(C34CC5CC(CC(C5)C3)C4)n2)cc1` gave 2A firefly 3% and StopGo RLuc -13%[1.06 µM].
Screening CCCCSc1nnc2n(-c3cccc(C)c3)c(=O)c3c4c(sc3n12)CCCC4 returned 2A firefly 1% and StopGo RLuc 5%.
Screening CCC(NC(=O)c1ccc[n+]([O-])c1)c1ccc(C)cc1 (stereo not given) returned 2A firefly 9% and StopGo RLuc 1%.
CCc1ccc(/C=C2\Cc3ccccc3C2=O)cc1 was read as 2A firefly 129%[activator] and StopGo RLuc 18%.
`Cc1ccc(NC(=O)CN(C)S(=O)(=O)c2ccc3c(c2)n(C)c(=O)c(=O)n3C)c(C)c1` gave 2A firefly -17% and StopGo RLuc -12%.
CCCCN(C)c1ccc(/C=N/NC(=S)Nc2ccc(CC)cc2)cc1 was read as 2A firefly 0% and StopGo RLuc 6%.
For CCCC(=O)N1CCCN(C(C)C(=O)Nc2ccc(F)c(F)c2)CC1 (stereo not given) the results were 2A firefly -4% and StopGo RLuc -11%.
CCn1c(=NC(=O)c2ccc(S(=O)(=O)N3CCCC3)cc2)sc2cc(Br)ccc21 was read as 2A firefly 2% and StopGo RLuc -4%.
Screening O=C(c1cc2cc(Br)ccc2oc1=O)N1CCc2ccccc2C1 returned 2A firefly -9% and StopGo RLuc -11%.
`CC(C)(C)n1ncc2c1NC(=O)CC21C(=O)Nc2cccc(Cl)c21` (stereo not given) gave 2A firefly -3% and StopGo RLuc -10%.
COc1ccc(Nc2nc3ccccc3nc2NS(=O)(=O)c2ccc(Cl)cc2)c(OC)c1 was read as 2A firefly 0% and StopGo RLuc 5%.
CCOC(=O)CCC(=O)Nc1nnc2n1CCS2 was read as 2A firefly 9% and StopGo RLuc -7%.
`CC(=O)Nc1ccccc1C(=O)N1CCN(C(c2ccccc2)c2ccccc2)CC1` gave 2A firefly 6% and StopGo RLuc 0%.
`NC(=O)c1cccc(O)c1` gave 2A firefly 12% and StopGo RLuc -6%.
Screening CC(NC(=O)c1n[nH]c(=O)c2ccccc12)c1nnc2n1CCCCC2 (stereo not given) returned 2A firefly -8% and StopGo RLuc -15%.
COc1ccc(C2=NOC(C(=O)N3CCN(c4ccccc4OC)CC3)C2)cc1 (stereo not given) was read as 2A firefly 7% and StopGo RLuc 6%.
`CCCc1ccc(OCc2ccc(C(=O)Nc3ccccc3C(=O)OC)o2)cc1` gave 2A firefly 32%[activator] and StopGo RLuc 2%.
`COCCNC(=O)CSc1nc2cc3c(cc2c(=O)n1CCCCCC(=O)NCCc1ccc(OC)c(OC)c1)OCO3` gave 2A firefly -15% and StopGo RLuc -6%.
For CCCCN(Cc1cc2ccccc2[nH]c1=O)C(=O)c1ccc(OC)cc1 the results were 2A firefly 11% and StopGo RLuc 16%.
Cc1ccc2oc(-c3ccc(Cl)c(NC(=O)c4ccc([N+](=O)[O-])o4)c3)nc2c1 was read as 2A firefly 161%[activator] and StopGo RLuc -8%.
COc1ccc(C(=O)OCC(=O)Nc2c(C(C)C)cccc2C(C)C)c(OC)c1OC was read as 2A firefly 4% and StopGo RLuc -5%.
For Cc1cc(Nc2ccccc2)n2nc(Cc3ccc(Cl)cc3)nc2n1 the results were 2A firefly -2% and StopGo RLuc 9%.
For COc1cccc(CNC(=O)CSC2=Nc3ccccc3C3=NC(C)C(=O)N23)c1OC (stereo not given) the results were 2A firefly 20% and StopGo RLuc 5%.
Screening COc1ccc(NC(=O)CSc2ncc(-c3ccc(Cl)cc3)[nH]2)cc1OC returned 2A firefly 1% and StopGo RLuc -6%.
`CS(=O)(=O)N1CCC(NS(=O)(=O)c2ccccc2F)CC1` gave 2A firefly -10% and StopGo RLuc -7%.
Screening CC(OC(=O)c1c[nH]c2ccccc12)C(=O)Nc1ccc(N2CCOCC2)cc1 (stereo not given) returned 2A firefly 16% and StopGo RLuc -8%.
For O=C(CCc1ccccc1)N1N=C(c2ccccc2)CC1c1ccc2nccnc2c1 (stereo not given) the results were 2A firefly inconclusive and StopGo RLuc inconclusive.
`O=C(Cn1c(=O)nc(-c2ccccc2)c2cc(Cl)ccc21)NCCc1ccc(Cl)cc1` gave 2A firefly -13% and StopGo RLuc -8%.
`Cc1oc(-c2ccc(Cl)cc2)nc1Cn1c(=O)cc(-c2ccccc2)c2c(C)nn(C)c21` gave 2A firefly -20% and StopGo RLuc -17%.
Cc1ccc(-c2cn3ccccc3n2)cc1C was read as 2A firefly -32% and StopGo RLuc 3%[1.06 µM].
`Cc1nc(-n2[nH]c(C)c(CCC(C)C)c2=O)sc1C(=O)Nc1ccccc1` gave 2A firefly 24% and StopGo RLuc 2%.
`COc1ccc(-c2cc(C(=O)Nc3c(C)n(C)n(-c4ccccc4)c3=O)no2)cc1OC` gave 2A firefly -6% and StopGo RLuc 0%.
For c1ccc(-c2noc(CN3CCCC3c3ccsc3)n2)nc1 (stereo not given) the results were 2A firefly 72%[activator] and StopGo RLuc -5%.
Screening COc1cccc(OC)c1C(=O)OCC(=O)c1ccc(Cl)cc1 returned 2A firefly 4% and StopGo RLuc 31%[activator].
`CCOC(=O)C(CC)Sc1nnc(CSc2ncccn2)n1-c1ccccc1` (stereo not given) gave 2A firefly 5% and StopGo RLuc 0%.
For COc1ccccc1CNC(=O)C1CCN(S(=O)(=O)c2c(C)noc2/C=C/c2cccs2)CC1 the results were 2A firefly -20% and StopGo RLuc -9%.
For NC(=O)COc1ccc(C2CC(=O)Nc3nc(N4CCCCC4)sc32)cc1 (stereo not given) the results were 2A firefly 15% and StopGo RLuc -1%.
COc1cccc(CNCCSc2nnnn2C)c1OCc1ccc(F)cc1 was read as 2A firefly -8% and StopGo RLuc -2%.
Cc1cccc(OCCNC(=O)c2ccc3c(c2)NC(=O)CS3)c1 was read as 2A firefly -26% and StopGo RLuc inconclusive.
Cc1c(-c2ccccc2)oc2c(C(=O)NCCCO)cccc2c1=O was read as 2A firefly 7% and StopGo RLuc -4%.
Screening Cc1ccc(S(=O)(=O)NC2=NCN(CCc3ccccc3)CN2)cc1 returned 2A firefly -18% and StopGo RLuc -18%.
For c1ccc(-c2cc(-c3ccccc3)c3c(n2)-c2ccccc2OC3)cc1 the results were 2A firefly 4% and StopGo RLuc -6%.
`CCOC(=O)c1ccc(CN(Cc2ccccc2)S(=O)(=O)c2ccc(C)cc2)cc1` gave 2A firefly 2% and StopGo RLuc 16%.
For CC(C)NC(=O)CSc1nnc(NC2CC2)s1 the results were 2A firefly 15% and StopGo RLuc 7%.
`Cc1cc(NC(=O)NCC(c2cccs2)N2CCOCC2)n(C)n1` (stereo not given) gave 2A firefly 22% and StopGo RLuc -7%.
`O=C(NC1CCCCCC1)c1cnn2c(C(F)(F)F)cc(-c3ccco3)nc12` gave 2A firefly -20% and StopGo RLuc 30%[activator].
`Cc1ccc(/C(O)=C2\C(=O)C(=O)N(CCCO)C2c2ccc(F)cc2)cc1` (stereo not given) gave 2A firefly -2% and StopGo RLuc -2%.
`Cc1ccc(-n2ncc3c(NNC(=O)C4CCCCC4)ncnc32)cc1` gave 2A firefly 0% and StopGo RLuc 8%.
`C#CCN1CCC(C(=O)N2CCN(c3cccc(C(F)(F)F)c3)CC2)CC1` gave 2A firefly -8% and StopGo RLuc -4%.
For Cc1oc(-c2cccs2)nc1C(=O)N1CCCC1C1CCCCC1 (stereo not given) the results were 2A firefly 42%[activator] and StopGo RLuc 35%[activator].
Screening CCOc1ccc(/C=C/c2nc(C#N)c(NCCCN(C)C)o2)cc1 returned 2A firefly 16%&4% and StopGo RLuc -11%&2%.
Screening Cc1nnc2ccc(N3CCC(C(=O)O)CC3)nn12 returned 2A firefly 12% and StopGo RLuc 3%.
Screening Cc1cccc(C)c1OCCn1c(C2CC(=O)N(Cc3ccc(F)cc3)C2)nc2ccccc21 (stereo not given) returned 2A firefly -12% and StopGo RLuc 14%.
Screening COc1ccccc1N1CCN(C(=O)CCn2cnc3onc(-c4ccc(F)cc4)c3c2=O)CC1 returned 2A firefly -2% and StopGo RLuc -1%.
For CCCNC(=O)CCn1nc(-c2ccccc2)c2ccccc2c1=O the results were 2A firefly -10% and StopGo RLuc 21%.
COc1ccc(-c2noc(-c3ccc(NC4CCCCC4)c([N+](=O)[O-])c3)n2)cc1OC was read as 2A firefly -7% and StopGo RLuc -4%.
COc1ccc(NC(=O)c2ccc3c(c2)NC(=O)CO3)cc1 was read as 2A firefly 165%[activator] and StopGo RLuc 1%.
`Cc1nc2ccccc2nc1CS(=O)(=O)C(C)C(=O)NCC(C)C` (stereo not given) gave 2A firefly -7% and StopGo RLuc 3%.
O=C(NCc1ccccn1)C1c2ccccc2C(=O)N(C2CCCC2)C12CCCC2 (stereo not given) was read as 2A firefly 1% and StopGo RLuc -3%.
Screening COc1ccc(C(=O)Nc2c(NCC3CCCCC3)c3ccccc3oc2=O)cc1OC returned 2A firefly -1% and StopGo RLuc -4%.
For COc1ccc2[nH]c(C)c(CC(=O)O)c2c1 the results were 2A firefly 0% and StopGo RLuc -2%.
`COc1ccccc1NC(=O)C1=C(C)Nc2nc3ccccc3n2C1c1ccccc1Cl` (stereo not given) gave 2A firefly -15% and StopGo RLuc -13%.
COc1ccc(S(=O)(=O)Nc2nc3ccccc3nc2Nc2ccc(NC(C)=O)cc2)cc1 was read as 2A firefly 22% and StopGo RLuc 220%[activator].
For CCOCCCNC(=O)c1ccc(-n2c(-c3ccccc3)cc3c2CCC(C)C3)cc1 (stereo not given) the results were 2A firefly 20% and StopGo RLuc 52%[activator].
For CCN(C(=O)Cc1nc(N)n[nH]1)C1(C(=O)Nc2ccccc2)CCCCC1 the results were 2A firefly -8% and StopGo RLuc -9%.
`CC(C)N(Cc1ccccn1)C(=O)c1cc(-c2cccs2)nc2ccccc12` gave 2A firefly -18% and StopGo RLuc 28%.
Screening CC1CCN(CCC(=O)N(CC#N)CC#N)c2ccccc21 (stereo not given) returned 2A firefly 129%[activator] and StopGo RLuc 31%.
`Cc1ccc(S(=O)(=O)c2cn(C)c3cc(N4CCCCCC4)c(F)cc3c2=O)cc1` gave 2A firefly -8% and StopGo RLuc 2%.
`O=C(c1cc2ccccc2oc1=O)N1CCc2ccccc2C1` gave 2A firefly 39%[activator] and StopGo RLuc 34%[activator].
`O=C(c1ccc2c(c1)N(Cc1c(F)cccc1Cl)C(=O)c1ccccc1S2)N1CCC2(CC1)OCCO2` gave 2A firefly -1% and StopGo RLuc 54%[activator].
O=C(NCCCN1CCCC1=O)C1CCCC1 was read as 2A firefly -4% and StopGo RLuc -1%.
Screening CCOc1ccc(CN(C)C(=O)Cn2nc(C(=O)O)c3ccccc3c2=O)cc1 returned 2A firefly -3% and StopGo RLuc -4%.
`CN(C)C(=O)CNC(=O)c1cc2sccc2n1Cc1ccccc1Cl` gave 2A firefly 20% and StopGo RLuc -11%.
Nc1nccnc1C(=O)NCC(c1ccccc1)c1c[nH]c2ccccc12 (stereo not given) was read as 2A firefly -5% and StopGo RLuc 7%.

Among those listed so far, these have an NH in an aromatic ring:
Screening COc1ccc(-c2[nH]c(-c3ccc(F)cc3)nc2SCC(=O)Nc2nccs2)cc1 returned 2A firefly -7% and StopGo RLuc 0%.
CCCc1c(C)[nH]c2c(Br)cccc2c1=O was read as 2A firefly 0% and StopGo RLuc 0%.
Screening CC(NC(=O)c1n[nH]c(=O)c2ccccc12)c1nnc2n1CCCCC2 (stereo not given) returned 2A firefly -8% and StopGo RLuc -15%.
For CCCCN(Cc1cc2ccccc2[nH]c1=O)C(=O)c1ccc(OC)cc1 the results were 2A firefly 11% and StopGo RLuc 16%.
Screening COc1ccc(NC(=O)CSc2ncc(-c3ccc(Cl)cc3)[nH]2)cc1OC returned 2A firefly 1% and StopGo RLuc -6%.
Screening CC(OC(=O)c1c[nH]c2ccccc12)C(=O)Nc1ccc(N2CCOCC2)cc1 (stereo not given) returned 2A firefly 16% and StopGo RLuc -8%.
`Cc1nc(-n2[nH]c(C)c(CCC(C)C)c2=O)sc1C(=O)Nc1ccccc1` gave 2A firefly 24% and StopGo RLuc 2%.
For COc1ccc2[nH]c(C)c(CC(=O)O)c2c1 the results were 2A firefly 0% and StopGo RLuc -2%.
For CCN(C(=O)Cc1nc(N)n[nH]1)C1(C(=O)Nc2ccccc2)CCCCC1 the results were 2A firefly -8% and StopGo RLuc -9%.
Nc1nccnc1C(=O)NCC(c1ccccc1)c1c[nH]c2ccccc12 (stereo not given) was read as 2A firefly -5% and StopGo RLuc 7%.

Bioassay records deposited in PubChem BioAssay by National Center for Advancing Translational Sciences (NCATS).
